YopH inh: blocks Yersinia enterocolitica YopH tyrosine phosphatase | inhibition, %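 (about 10 µM by stock and volumes)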 | fluorescence Ex485/Em525 | 140,000 compounds, 0.16% hits;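 active = inhibition of 50% or more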;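 note: controls were vehicle for no effect and minimum signal wells for full effect; inactives centre near -20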
Arbovirus inh: arbovirus infection inhibition | arbovirus infection cell-based antiviral screen | inhibition, % at 10 µM | 200,000 compounds, 0.37% hits | AID 1251;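 active = inhibition from about 30%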;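 note: bluetongue infection of BSR cells; cell survival read as ATP light after 72 h; 0% = infected wells without compound and 100% = uninfected wells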
Mtb betalactam: beta-lactam sensitization of Mtb H37Rv. inhibition, % at 25 µM. 330,000 compounds, 0.27% hits. M. tuberculosis H37Rv growth with meropenem, percent inhibition; hits of this screen are not shown here;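 active = about 74% or more and at least 40 points above the plate without the antibiotic, then above 30% in a dose series; inconclusive = first-round hits that could not be retested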;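 note: growth measured after seven days incubation then overnight dye step; 0% = bacteria only wells and 100% = bacteria with antibiotic; twin plates without the antibiotic show which effects depend on it; some results filed as inactive read as strong as hits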
RecA intein inh: inhibitors of M. tuberculosis RecA intein splicing; inhibition, %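 (about 9 µM by stock and volumes)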; AID 2221; 290,000 compounds, 0.75% hits; cell-free RecA intein splicing, fluorescence; P9WHJ3; in the data active = inhibition above about 30%; inconclusive = no clear call, values can overlap the other calls;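 note: 0% = vehicle wells and 100% = reference inhibitor control wells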
Target sequence (P9WHJ3 whole entry, looked up): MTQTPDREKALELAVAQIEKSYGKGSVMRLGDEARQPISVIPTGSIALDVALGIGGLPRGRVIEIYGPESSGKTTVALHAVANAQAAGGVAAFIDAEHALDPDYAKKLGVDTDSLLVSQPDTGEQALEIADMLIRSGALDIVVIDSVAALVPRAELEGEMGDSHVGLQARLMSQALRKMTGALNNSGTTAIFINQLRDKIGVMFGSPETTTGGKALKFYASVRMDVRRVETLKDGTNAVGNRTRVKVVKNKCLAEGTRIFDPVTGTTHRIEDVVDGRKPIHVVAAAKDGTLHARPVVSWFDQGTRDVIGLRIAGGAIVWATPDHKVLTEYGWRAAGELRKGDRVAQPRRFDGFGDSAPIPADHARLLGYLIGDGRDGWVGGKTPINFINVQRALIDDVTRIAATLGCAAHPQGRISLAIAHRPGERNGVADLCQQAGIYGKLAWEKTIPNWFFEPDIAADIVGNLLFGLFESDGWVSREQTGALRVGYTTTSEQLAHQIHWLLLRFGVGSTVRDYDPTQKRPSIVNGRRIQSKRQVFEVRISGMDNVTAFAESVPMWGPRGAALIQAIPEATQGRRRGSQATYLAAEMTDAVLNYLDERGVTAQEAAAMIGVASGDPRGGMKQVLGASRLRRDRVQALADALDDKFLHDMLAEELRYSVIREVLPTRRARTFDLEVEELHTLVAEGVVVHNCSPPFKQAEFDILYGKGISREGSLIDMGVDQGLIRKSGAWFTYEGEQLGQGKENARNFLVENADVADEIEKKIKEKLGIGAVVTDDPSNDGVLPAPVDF
Mtb growth: M. tuberculosis H37Rv growth inhibitors, H37Rv strain (AID 1626); M. tuberculosis H37Rv growth inhibition; higher % means a stronger effect; inhibition, % at 10 µM; hits with a dose series show IC50 in µM; 220,000 compounds, 0.95% hits;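 active = confirmed in a dose series; inconclusive = inhibition above 80% but not taken into the dose series; inactive = below 80% or under 30% at every dose of the series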;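 note: bacteria incubated seven days before Alamar blue readout; 0% = bacteria only wells and 100% = bacteria with antibiotic wells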
Arbovirus inh repeat: second read-out of Arbovirus inh, no call of its own (marks repeat the call); inhibition, %; measured here: 10K subset replicate screen; many hits read low in the repeat;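 first of two repeat runs on a subset; 0% = infected and 100% = uninfected wells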
* = called active by the depositor; u = inconclusive; x = not tested or not shown; & = joins results of further samples. This is a subset, so the mix of outcomes need not match the whole.

The first 6 entries (preview)
SMILES	YopH inh	Arbovirus inh	Mtb betalactam	RecA intein inh	Mtb growth	others
COc1ccccc1-c1nnc(SCC(=O)NCc2cccs2)n1N	x	1	-7	-2.1	3%
COc1ccc(CCNC(=O)C2CCN(C(=O)c3ccc(Cl)cc3)CC2)cc1	x	x	-6	0.4	x
COc1ccc(CN2CCNC(=O)C2CC(=O)NCCc2nc(C)c(C)s2)c(OC)c1 (stereo not given)	x	x	1	2.1	-6%
CCOc1ccccc1N=C1SCCCN1C	-34	3	3	-0.6	1%
CCc1cc2c(N3CCN(c4ccccc4)CC3)ncnc2s1	-39	-4	89	2.1	23%
Fc1ccccc1NC(=S)NCc1ccc2c(c1)OCO2	-22	-8	7	-4.4	5%

All compounds of this part, from the first entry:
SMILES	YopH inh	Arbovirus inh	Mtb betalactam	RecA intein inh	Mtb growth	others
COc1ccccc1-c1nnc(SCC(=O)NCc2cccs2)n1N	x	1	-7	-2.1	3%
COc1ccc(CCNC(=O)C2CCN(C(=O)c3ccc(Cl)cc3)CC2)cc1	x	x	-6	0.4	x
COc1ccc(CN2CCNC(=O)C2CC(=O)NCCc2nc(C)c(C)s2)c(OC)c1 (stereo not given)	x	x	1	2.1	-6%
CCOc1ccccc1N=C1SCCCN1C	-34	3	3	-0.6	1%
CCc1cc2c(N3CCN(c4ccccc4)CC3)ncnc2s1	-39	-4	89	2.1	23%
Fc1ccccc1NC(=S)NCc1ccc2c(c1)OCO2	-22	-8	7	-4.4	5%
Cc1ccc(S(=O)(=O)N2CCC(C(=O)NCCCN3CCOCC3)CC2)cc1	x	x	-10	-1.2	x
COc1ccc(-n2nnc3c(=O)n(CC(=O)Nc4ccc5c(c4)OCCO5)cnc32)cc1OC	x	x	-1	-1.2	x
Cc1ccc(NC(=O)C2CCCN(S(=O)(=O)c3cccs3)C2)cc1 (stereo not given)	-31	-5	-11	2.7	-1%
CC(=O)C1=C(O)C(=O)N(c2ccc(C)cc2)C1c1ccccn1 (stereo not given)	-45	-1	-10	-4.7	6%
CCOC(=O)c1c(CN2CCN(Cc3ccccc3)CC2)n(C)c2cc(Br)c(OC)cc12	5	-4	94	2.8	64%
Cc1nn(C)c(=S)n1-c1ccc(Cl)cc1	x	2	-6	x	1%
COc1ccc(CCN2C(=O)N[C@@H](C(C)C)C2=O)cc1	x	x	1	-0.1	x
CC(C)(C)C(=O)NC(=S)NNC(=O)c1sc2ccccc2c1Cl	-5	-37	98	4.0	u
CCC(C)Sc1ccc([C@H]2N[C@@](C)(C(=O)OC)[C@H]3C(=O)N(CC)C(=O)[C@@H]23)cc1 (stereo not given in full)	x	x	-9	3.2	x
CN(C)S(=O)(=O)N1CCCN(S(=O)(=O)N(C)C)CC1	-36	-1	-10	-2.8	-12%
COc1ccc(CCN(C)CC(O)COc2ccc(C(C)=O)cc2OC)cc1OC (stereo not given)	x	x	-6	0.5	x
CCCn1c(N)c(N(CCOC)C(=O)c2cc(C)cc(C)c2)c(=O)[nH]c1=O	x	x	-7	2.6	x
O=C(OCc1ccccc1)c1cn(-c2ccccc2)nc1-c1ccncc1	-2	-4	-1	3.6	-2%
CCCCN(CC)S(=O)(=O)c1ccc(C(=O)Nc2nnc(-c3cccs3)o2)cc1	6	-9	94	0.0	u
CCNc1nc(C)c(CN(C(C)=O)c2ccccc2)nc1C#N	-43	-4	-1	-36	2%
Clc1ccc(N2N=C(c3cccs3)CC2c2ccco2)cc1 (stereo not given)	-21	-5	3	-14	5%
NC(=O)c1ccc(C(=O)Nc2ccc([As](=O)(O)O)cc2)cc1	x	x	-6	5.1	-11%
CC(Oc1ccc2cc(-c3ccccc3)c(=O)oc2c1)C(=O)NCC1CCC(C(=O)O)CC1 (stereo not given)	x	x	5	-5.7	x
Cc1cc(C)cc(N(CC(=O)N2CCCC2)S(C)(=O)=O)c1	x	x	4	0.2	x

Looked up one by one from the list above (2):
SMILES	YopH inh	Arbovirus inh	Mtb betalactam	RecA intein inh	Mtb growth	others
COc1ccc(CCN(C)CC(O)COc2ccc(C(C)=O)cc2OC)cc1OC (stereo not given)	x	x	-6	0.5	x
NC(=O)c1ccc(C(=O)Nc2ccc([As](=O)(O)O)cc2)cc1	x	x	-6	5.1	-11%

Back to the main list; the 2 compounds before the break are reprinted first.
SMILES	YopH inh	Arbovirus inh	Mtb betalactam	RecA intein inh	Mtb growth	others
CC(Oc1ccc2cc(-c3ccccc3)c(=O)oc2c1)C(=O)NCC1CCC(C(=O)O)CC1 (stereo not given)	x	x	5	-5.7	x
Cc1cc(C)cc(N(CC(=O)N2CCCC2)S(C)(=O)=O)c1	x	x	4	0.2	x
N#CCCn1cc(C=C(C#N)C#N)c(-c2ccc(Cl)cc2)n1	x	-2	-8	5.2	10%
O=C(Nc1ccc2[nH]ncc2c1)C1CCC1	x	x	2	14	x
COCCNC(=O)c1ccc(C2SCC(=O)N2Cc2ccco2)cc1 (stereo not given)	x	-3	0	-4.5	-7%
CC(C)Cn1c(=O)n(C)c(=O)c2[nH]cnc21	x	x	0	1.9	-6%
CCCC(=O)N=C1SC2CS(=O)(=O)CC2N1c1ccc(CC)cc1 (stereo not given)	3	3	-5	1.8	x
Cc1ccc2c(c1)N(C(=O)CCC(=O)N1CCC3(CC1)OCCO3)CCO2	x	x	6	1.9	x
O=C(COc1ccc(Cl)cc1Cl)Nc1cccnc1	x	2	-7	x	2%
Cc1nnc2n(C3CCCCC3)c(=O)c3c4c(sc3n12)COC(C)(C)C4	-47	-14	-11	0.3	2%
COc1ccccc1CCNC(=O)C1CCC(=O)N(C2CC2)C1 (stereo not given)	x	x	-5	0.9	x
CC(=O)c1cccc(N(C(=O)c2ccccn2)C(C(=O)NC2CCCCC2)c2ccccc2)c1 (stereo not given)	x	x	0	-1.2	x
CCN(CC)C(=O)Oc1cc(COC)nc(-c2ccccc2)n1	x	x	-3	1.4	8%
CCc1c(C(C)S(=O)(=O)c2ccc(C)cc2)[nH]c(=O)n1-c1ccc(C)cc1 (stereo not given)	-9	5	5	2.4	3%
COc1ccc(-c2nsc3c(N4CCCC4)ncnc23)cc1	0	4	1	x	0%
Cc1ccc(N2C(=O)NC(=O)/C(=C\C=C\c3ccco3)C2=O)cc1	x	x	26	-1.3	-5%
Cc1cccc(Oc2ncnc(N)c2[N+](=O)[O-])c1	-18	-4	8	-1.8	x
Cc1cc2c(OCC(O)CNC3CCCCC3)cccc2[nH]1 (stereo not given)	x	12	1	0.1	-3%
CCOc1ccc2nc(N3CCC(C(=O)N4CCC5(CC4)OCCO5)CC3)sc2c1	-2	3	1	-1.7	3%
O=C(Cn1cnc2ccccc2c1=O)NCc1ccc2c(c1)OCO2	-15	-6	-10	x	-15%
O=C(NC(=S)NNC(=O)c1cccs1)c1ccco1	-40	-22	78	-1.8	x
C=CCOC(=O)/C(=C\c1ccc(OC)cc1)NC(=O)c1ccco1	-8	-7	4	5.2	x
CC1CN(CCC(=O)Nc2ccc3c(c2)OCO3)CC(C)O1 (stereo not given)	-36	0	-2	-1.3	-12%
COc1ccc(CNC(=O)COC(=O)CC2CCCC2)cc1	-12	-1	-3	0.6	-6%
Cc1ccc2c(Cl)cc(Cl)c(OCc3c(C)noc3C)c2n1	8	-8	x	2.0	0%
O=C(CCCn1c(=O)[nH]c2cc(Cl)ccc2c1=O)NCCN1CCN(c2ccccc2)CC1	3	13	-7	-3.1	1%
COc1cccc(CNC(=O)Cc2ccc(NC3=NC4CS(=O)(=O)CC4S3)cc2)c1 (stereo not given)	x	x	0	-2.5	x
The list goes on.
SMILES	YopH inh	Arbovirus inh	Mtb betalactam	RecA intein inh	Mtb growth	others
CC1=C(C(=O)N2CCc3ccccc32)C2(CCC(C)CC2)OC1=O (stereo not given)	-31	5	12	5.3	12%
COCCOC(=O)C1=C(C)N(Cc2ccccc2)C(=O)NC1c1ccc(OC)cc1 (stereo not given)	-15	12	3	6.7	-4%
CCc1nnc(NC(=O)NCN2C(=O)C3C4C=CC(C4)C3C2=O)s1 (stereo not given)	-61	13	2	0.5	-17%
O=C(NC1CCCC1)c1noc2c1CCCCC2	-42	-4	1	-0.2	-10%
CS(=O)(=O)N1CCN(C(=O)c2c(F)cccc2F)CC1	-14	12	x	0.1	-5%
COc1cc(CNCc2ccccn2)ccc1OCc1ccc(Cl)c(Cl)c1	x	-33	97	-0.8	5.6µM*
O=C(N=C1SC2CS(=O)(=O)CC2N1Cc1ccc(Cl)cc1)C1CCCO1 (stereo not given)	x	x	-5	1.4	x
CC(Sc1nnc(NC2CCCCC2)s1)C(=O)N1CCOCC1 (stereo not given)	x	x	-13	-0.7	x
COc1ccc(S(=O)(=O)N2CCOCC2)cc1NC(=O)COC(=O)C1CC2CCCC(C1)C2=O (stereo not given)	x	x	6	0.3	x
COC(=O)Nc1nc2ccc(-c3n[nH]c(=O)c4ccccc34)cc2[nH]1	-33	-9	-10	-3.3	-1%
CC(=O)NCC(=O)N1CCCC(C(=O)c2ccc(-c3ccccc3)c(F)c2)C1 (stereo not given)	x	-3	-8	-1.0	3%
O=C(NCc1ccc(Cl)cc1)c1ccc(Cl)cc1[N+](=O)[O-]	1	-1	19	-1.8	4%
C=C(C)CN(Cc1ccccc1)C(=S)Nc1ccccc1	x	x	-2	-0.2	x
CCN(CC)CC(=O)Nc1c(C)cccc1C	-28&-13	13&-2	x	2.9&-2.1	x
COc1ccc(C2NC(=O)NC(O)(C(F)(F)F)C2C(=O)c2ccc(F)cc2)cc1 (stereo not given)	-4	3	0	0.2	-4%
Cc1ccc2c(COC(=O)c3ccc(NC(=O)CC#N)cc3)cc(=O)oc2c1C	x	x	-3	1.1	x
COCCNC(=O)Cn1cc(C=C2C(=O)NC(=O)NC2=O)c2ccccc21	x	x	-1	-0.3	x
O=C(CSc1ccc2ccccc2c1)NCCCN1CCCC1=O	x	6	0	-2.3	-4%
CCCc1cc(C(=O)Nc2cccc(Cl)c2)no1	-32	1	92	4.9	u	Arbovirus inh repeat=0
Cc1nc(Oc2ccccc2)c2ccccc2n1	-22	1	-4	11	2%
Cc1ccc(Cn2ncc3c(N4CCN(C5CCCC5)CC4)ncnc32)cc1	x	-12	-9	2.1	1%
NCCCC(=O)OC1N=C(c2ccccc2Cl)c2cc(Br)ccc2NC1=O (stereo not given)	x	9	-8	-0.2	-7%
CCNC(=O)c1c(NC(=O)C2COc3ccccc3O2)sc2c1CCCC2 (stereo not given)	10	-2	3	3.4	3%
COc1ccc(Cl)cc1NS(=O)(=O)c1cccc(C(=O)NCCCN2CCCC2=O)c1	x	x	-28	1.3	x
O=Cc1cn(CC(=O)Nc2ccccc2)c2ccccc12	x	x	1	1.3	x
Later entries
SMILES	YopH inh	Arbovirus inh	Mtb betalactam	RecA intein inh	Mtb growth	others
O=C(N/N=C/c1ccc(O)c2ccccc12)c1cccnc1	x	x	99	-0.6	x
Cc1ccc(C)c(-n2cc[nH]c2=S)c1	-8	-5	-6	2.6	12%
COC(=O)C1=C(c2cc3ccccc3o2)C[C@@H]2CC[C@H]1N2C(=O)NCCNC(C)=O	x	x	-7	-0.1	-2%
COc1ccccc1-c1cc(C(=O)Nc2c(C)n(C)n(-c3ccccc3)c2=O)no1	-45	2	x	2.1	0%
O=C(NNC1=C(C(=O)C(F)(F)F)CCC1)c1ccccc1O	-30	4	86	7.9	35%
O=C(CSc1ncnc2c1nnn2Cc1ccc(F)cc1)NC1CCCCC1	x	8	0	1.5	4%
CC(=O)Nc1nc(N)n(-c2ccccc2)n1	-9	8	-5	x	-3%
O=C(NCc1ccc(F)cc1)C1CCC(CNc2c(N3CCCCC3)c(=O)c2=O)CC1 (stereo not given)	x	x	-9	1.3	-1%
O=C(NCCC1=CCCCC1)C1CCN(C(=O)Cc2ccccc2)CC1	x	-4	-2	-0.4	0%
O=C1CC(N2CCC(n3c(=O)[nH]c4ccccc43)CC2)C(=O)N1Cc1ccccc1 (stereo not given)	0	9	-5	1.0	9%
CC(C)(C)OC(=O)N1CCN(C(=O)c2cccnc2Cl)CC1	x	6	-4	-1.4	5%
O=C(Cc1ccc(Cl)cc1)Nc1ccc(C(=O)N2CCOCC2)cc1	x	17	10	1.7	-4%
COc1ccc(CNc2nc3c(c(=O)[nH]c(=O)n3C)n2Cc2ccccc2)cc1	x	x	1	-1.7	x
COc1ccc(N(C)S(=O)(=O)c2ccc3c(c2)oc(=O)n3C)cc1	-21	-2	-18	-3.3	-12%

Filtered by structure, those above containing a nitro group on carbon (two)
SMILES	YopH inh	Arbovirus inh	Mtb betalactam	RecA intein inh	Mtb growth	others
Cc1cccc(Oc2ncnc(N)c2[N+](=O)[O-])c1	-18	-4	8	-1.8	x
O=C(NCc1ccc(Cl)cc1)c1ccc(Cl)cc1[N+](=O)[O-]	1	-1	19	-1.8	4%

Assay outcomes (PubChem)
